HPGD block: blocks human HPGD enzyme activity. P15428. purified HPGD, NADH fluorescence kinetic, PGE2 substrate. Potency, µM, without a hit: at the highest dose activity change, negative = inhibition, actives largely listed as inhibitors. hit rate 4.3% among 150,000. AID 894; active = well fitted inhibition curve with a large enough effect (not every such curve was filed as active); inconclusive = small, poorly fitted or top-dose-only effect, or another doubt; inactive = no such curve, though single readings can be large or run the other way;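 note: top concentration of the series not given in the record; plate controls included wells without enzyme; inactives centre near -10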
Target sequence (P15428 whole entry, looked up): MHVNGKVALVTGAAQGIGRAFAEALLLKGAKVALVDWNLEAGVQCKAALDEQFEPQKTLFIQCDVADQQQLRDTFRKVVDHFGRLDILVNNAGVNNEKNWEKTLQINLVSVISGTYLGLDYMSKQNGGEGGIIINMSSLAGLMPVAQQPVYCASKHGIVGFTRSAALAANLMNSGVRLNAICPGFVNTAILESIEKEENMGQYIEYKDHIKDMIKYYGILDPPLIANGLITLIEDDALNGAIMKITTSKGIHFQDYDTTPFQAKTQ
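NADH formation kinetics: reaction with 30 uM PGE2 and 1 mM NAD+ (final), 20 nM enzyme, Tris-HCl pH 8 with Tween 20, after 15 min compound preincubation at room temperature. Fluorescence change, last versus first of five reads.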
* = called active by the depositor; ? = inconclusive. % is set by controls: 0 for no effect and ±100 for the full control effect; potency is the fitted concentration of half-maximal effect. An excerpt; the hit share may differ from the screen's.

no.	mol	HPGD block
1	CCOC(=O)c1cccc(N2C(=O)C3C(C2=O)C2C=CC3C23CC3)c1 (stereo not drawn)	-17%
2	Cc1cc(C)c(C)c(OCC(=O)NCC2CCCO2)c1 (stereo not drawn)	?
3	O=C(COc1ccccc1Cl)c1ccc2c(c1)CCCC2	-25%
4	O=C(C(Cc1ccc(Cl)cc1)NS(=O)(=O)c1ccccc1)N1CC[C@@]2(O)CCCC[C@H]2C1 (stereo partly drawn)	-1%
5	O=c1c(-c2ccc(F)cc2)nc2cnc(Nc3ccccc3)nc2n1C1CC1	-7%
6	CCN1CCN(C(C(=O)NC2CCCC2)c2ccc(Cl)cc2)CC1 (stereo not drawn)	2%
7	COC(=O)[C@H](CCSC)NC(=O)NCCC1=CCCCC1	-6%
8	O=C(NC(=O)c1cccc(OC(F)(F)C(F)F)c1)OC1CCS(=O)(=O)C1 (stereo not drawn)	-6%
9	CCC(=O)N(Cc1cc2cc(OC)ccc2[nH]c1=O)c1cccc(C)c1	?
10	O=C(Nc1cccc2ccccc12)c1nn(C23CC4CC(CC(C4)C2)C3)cc1[N+](=O)[O-]	-15%
11	COc1cc(C2NCCC(=O)C2(C)C)cc(OC)c1OC (stereo not drawn)	-4%
12	Cc1ccc(C(=O)NCC2(c3ccccc3)CCCC2)cc1	-3%
13	COc1cc(/C=C2/SC(=O)N(Cc3ccccc3)C2=O)ccc1OCc1ccncc1	?
14	COC(=O)c1sccc1-n1cccc1C(=O)C(=O)N1CCCCC1	-7%
15	c1ccc2[nH]c(CN3CCCCCC3)nc2c1	-17%
16	c1ccc2[nH]c(SCCN3CCOCC3)nc2c1	-4%
17	CON1C(=O)CN(C(C)=O)C1c1ccc(Cl)cc1Cl (stereo not drawn)	0%
18	O=C(Nc1ccc2c(c1)CCC2)c1ccc(F)cc1	-7%
19	COc1ccc(-n2c(C)nc3c(cnn3-c3ccc(C)c(C)c3)c2=O)cc1	-2%
20	CN(CCc1ccccn1)C(=O)Nc1ccc(F)cc1	-1%

(continued)
no.	mol	HPGD block
21	COc1ccc2c(c1)C(=O)[C@@H](OC(=O)NS(=O)(=O)c1ccc(F)cc1)[C@H](c1ccc(OC)c(Br)c1)O2	-20%
22	COc1ccccc1NC(=O)CN1C(=O)NC(C)(C)C1=O	-1%
23	CC(=O)Nc1ccc(C(=O)OCc2ccc(Cl)c(Cl)c2)cc1	-13%
24	NCCC(O)C(=O)NC1C[C@@H](N)[C@H](O[C@@H]2OC(CN)C(O)C(O)C2O)C(O)[C@H]1O[C@H]1OC(CO)C(O)C(N)C1O (stereo partly drawn)	-8%
25	CCOC(=O)C1=C(NC(=S)NC(=O)c2ccccc2)c2ccccc2CC1(C)C	-14%
26	COC(=O)c1ccc(CSc2ncnc3c2nnn3-c2ccc(OC)cc2)o1	?
27	COc1ccc(N(C(=O)CS(=O)CC(=O)Nc2ccc(F)cc2)C(C(=O)NC2CCCCC2)c2cccs2)cc1 (stereo not drawn)	-12%
28	COc1ccc(CCN2CC(O)=C(c3nc(C)cs3)C2=N)cc1OC	-2%
29	CCc1ccc(CCC(=O)Nc2ccc(OC)cc2)o1	-17%
30	Cn1c(Cc2ccccc2)nnc1SCC(=O)c1cccs1	-11%
31	Cc1cccc(N(CC(=O)NC2CCCCC2)C(=O)CCCC(=O)Nc2ccccn2)c1	-10%
32	CC12CCC(C(=O)N(CCC#N)CCC#N)(CC1=O)C2(C)C (stereo not drawn)	-8%
33	COc1ccc(-c2noc(-c3cc4ccccc4oc3=O)n2)cc1	-14%
34	O=C(OC1CCOC1=O)c1ccc2ncsc2c1 (stereo not drawn)	-1%
35	O=C(c1ccc(Cl)c(S(=O)(=O)Nc2ccccc2C(=O)N2CCc3ccccc3C2)c1)N1CCc2ccccc2C1	-12%
36	COc1ccc(/C=C/C(=O)NCCOc2ccccc2OC)cc1	-7%
37	Brc1ccc(-c2nnc(-c3ccccc3)o2)o1	-8%
38	CCOc1ccc(-c2nnc3ccc(SCC(=O)N4CCCCC4)nn23)cc1	-9%
39	O=C(CCC1CCCCC1)Nc1ccccc1-c1ccccc1	-16%
40	O=C1NC(c2cccs2)Nc2sc3c(c21)CCCC3 (stereo not drawn)	?

(next part)
no.	mol	HPGD block
41	C[C@H]1[C@H](O)[C@@H](C)C=CC=CC=CC=CC=CC=CC=C[C@H](O[C@@H]2O[C@@H](C)[C@H](O)[C@@H](N)[C@@H]2O)C[C@@H]2O[C@](O)(C[C@@H](O)C[C@@H](O)[C@@H](O)CC[C@@H](O)C[C@@H](O)CC(=O)O[C@H]1C)C[C@H](O)[C@H]2C(=O)O	-2%
42	O=S(=O)(Cc1ccc(Cl)cc1)CC(O)COCc1ccccc1 (stereo not drawn)	3%
43	CCOC(=O)c1c(NC(=O)c2cc(C(C)C)on2)sc(C(C)=O)c1C	?
44	COc1cc(C(=O)OC(C)CN2CCN(C)CC2)cc(OC)c1OC (stereo not drawn)	3%
45	Cc1ccc(N2C(=O)c3ccc(C(=O)N4CCN(c5cccc(C)c5C)CC4)cc3C2=O)cc1	-4%
46	COCCNC(=O)C1(C)Oc2ccccc2NC1=O (stereo not drawn)	0%
47	CC(C)CNC(=O)C1CCCN1S(=O)(=O)c1ccc(Cl)cc1 (stereo not drawn)	-10%
48	Cc1cc(NC(=O)CSc2nnc(-c3ccoc3C)n2N)no1	-2%
49	Fc1ccccc1CSc1nnc(-c2ccccc2)o1	10µM*
50	Cc1cc(C)cc(NC(=O)COc2ccc3c(C)c(Cc4ccccc4)c(=O)oc3c2)c1	?
51	CCOC(=O)C(CC)Sc1nc(N)c(NC(=O)c2ccc(OC)c(OC)c2)c(=O)[nH]1 (stereo not drawn)	1%
52	CC1(OC(=O)C2CCCC2)C(=O)C=C2C=C(c3ccsc3)N(CC3CC3)C=C2C1=O (stereo not drawn)	0%
53	O=C(Nc1cc(-c2nc3ccccc3s2)ccc1Cl)c1ccc2c(c1)OCO2	?
54	CC(C)NC(=O)c1onc(CSc2ccc(Cl)cc2)c1C(=O)O	-8%
55	CCCCc1nc2c(c3c1C[C@H](C)OC3)CN(S(=O)(=O)CCCC)CC2	-6%
56	O=C(CN(Cc1ccccc1)C(=O)CSc1nnc(COc2ccccc2)o1)NC1CCCC1	?
57	CCN(CCNC(=O)C1CCCN(S(=O)(=O)CC)C1)c1ccccc1 (stereo not drawn)	-9%
58	O=C1c2cccnc2C(O)N1Cc1ccc(F)cc1 (stereo not drawn)	-5%
59	CCCCN(C(=O)CCC(=O)O)C1CC(=O)N(c2ccc(OCCC)cc2)C1=O (stereo not drawn)	-12%
60	CNc1nc(Nc2ccc(Br)cc2)nc(N)c1[N+](=O)[O-]	-10%

Values in list order from the list.
HPGD block, nos. 22–33: -1%, -13%, -8%, -14%, ?, -12%, -2%, -17%, -11%, -10%, -8%, -14%

Exported with values ahead of the structure: entries from further up.
| # | HPGD block | compound |
| --- | --- | --- |
| 42 | 3% | O=S(=O)(Cc1ccc(Cl)cc1)CC(O)COCc1ccccc1 (stereo not drawn) |
| 43 | ? | CCOC(=O)c1c(NC(=O)c2cc(C(C)C)on2)sc(C(C)=O)c1C |
| 44 | 3% | COc1cc(C(=O)OC(C)CN2CCN(C)CC2)cc(OC)c1OC (stereo not drawn) |

Later entries.
no.	mol	HPGD block
61	COc1cccc2cc(-c3csc(CCn4nc(C)cc4C)n3)c(=O)oc12	-19%
62	CCOc1ccc(N2C(=O)CN=C2Nc2ccccc2Cl)cc1	-9%
63	COCCCNc1oc(COc2ccc(Cl)cc2Cl)nc1C#N	28µM*
64	CCCCN(Cc1ccccc1)C(=O)C1CCCN(S(=O)(=O)c2cnc[nH]2)C1 (stereo not drawn)	-6%
65	O=C(N/N=C/c1cccs1)c1ccc2c(c1)OCO2	-28%
66	CN(C)/C=C1\C(=O)N(c2ccc(Oc3ccccc3)cc2)CS1=O (stereo not drawn)	-3%
67	COc1cc2c(cc1OC)C(C(C)C)=NC(C)(C)C2	?
68	Cc1nc2cnc(Oc3ccccc3)nc2n(CCC#N)c1=O	-15%
69	Cc1cc(N2CCOCC2)nc(SCc2ccc(Cl)cc2Cl)n1	-19%
70	CCN(CC)S(=O)(=O)c1cccc(C(=O)NC(C(=O)Nc2nnc(C)s2)C(C)C)c1 (stereo not drawn)	-7%
71	Cc1ccc(S(=O)(=O)N2CCC(C(=O)N/N=C/c3ccccc3[N+](=O)[O-])CC2)cc1	-2%
72	Cc1nc(Nc2ccc(F)cc2)[nH]c(=O)c1CCC(C)C	-19%
73	O=S(=O)(NCC1CCCO1)c1cc(Br)c(Br)s1 (stereo not drawn)	-25%
74	CCn1c(C)nc2cc(S(=O)(=O)C(F)(F)C(F)C(F)(F)F)ccc21 (stereo not drawn)	?
75	COc1c2c(cc3oc(C)cc(=O)c13)OC(C(C)(C)OC1OC(CO)C(O)C(O)C1O)C2 (stereo not drawn)	?
76	CCOc1ccc(NC(=O)c2ccc(CSc3nnnn3C)cc2)cc1	-5%
77	COc1ccc(-c2cc3nc[nH]c(=O)c3s2)cc1	?
78	Cc1ccsc1/C=N/NC(=O)c1sccc1C	-17%
79	CCC(=O)Nc1ccc(NC(=S)Nc2ccccc2)cc1	-3%
80	CC1CCN(C(=O)c2cc3ccccc3o2)CC1	11µM*

The listing continues.
no.	mol	HPGD block
81	N#C/C(=C\Nc1ccccn1)C(=O)C1CC1	-4%
82	Cc1cccc(OCCCn2c(CCNC(=O)C(C)C)nc3ccccc32)c1	-5%
83	Cn1c(N/N=C/c2c[nH]c3ccccc23)nc2ccccc21	?
84	COc1ccc(/C=N/NC(=O)c2[nH]c3ccc(Br)cc3c2-c2ccccc2)cc1	?
85	CCOC(=O)c1sc2nccc(N(C)C)c2c1N=CNOC	-7%
86	Cc1c(Cl)c(-c2n[nH]c(=S)n2Cc2ccco2)nn1C	-22%
87	Cc1nc2nc(-c3ccccc3)cn2nc1C	?
88	O=c1cc(/C=C/c2ccccc2)oc2c1ccc1ccccc12	?
89	COCCCN1C(=O)c2ccc(C(=O)Nc3ccccc3OC)cc2C1=O	-10%
90	CN1C(=O)/C(=C/c2cc(N=Nc3ccccc3)ccc2O)SC1=S	-19%
91	CCOC(=O)N1CCN(C(=O)CSCc2ccc(C)cc2)CC1	-3%
92	NC(=O)C1CCCN(C(=O)Nc2cccc3ccccc23)C1 (stereo not drawn)	-13%
93	O=C(CCSc1nc2cc(Cl)ccc2o1)N1CCOCC1	-9%
94	Cc1ccc2c(c1)C(=NC1CCCCC1)c1cc3ccccc3nc1-2	-6%
95	CSc1nc(-c2ccccc2)nn1S(=O)(=O)c1ccccc1	?
96	CCCCNC(=O)c1cccc(NC(=O)C(=O)c2ccccc2NC(C)=O)c1	-6%
97	COc1cc(S(=O)(=O)NC2CCCCC2)ccc1F	?
98	COC(=O)N1CCC2(CCN(C(=O)Nc3ccccc3)CC2)CC1	-9%
99	Cc1cc(OCC(=O)c2ccc(Br)cc2)ccc1N1C(=O)CCC1=O	14µM*
100	O=C(CNC(=O)c1ccc(-c2ccccc2)cc1)OCc1ccc(Cl)cc1	-8%

6 of the entries above in order of the HPGD block value, low to high.
no.	mol	HPGD block
86	Cc1c(Cl)c(-c2n[nH]c(=S)n2Cc2ccco2)nn1C	-22%
93	O=C(CCSc1nc2cc(Cl)ccc2o1)N1CCOCC1	-9%
100	O=C(CNC(=O)c1ccc(-c2ccccc2)cc1)OCc1ccc(Cl)cc1	-8%
96	CCCCNC(=O)c1cccc(NC(=O)C(=O)c2ccccc2NC(C)=O)c1	-6%
81	N#C/C(=C\Nc1ccccn1)C(=O)C1CC1	-4%
91	CCOC(=O)N1CCN(C(=O)CSCc2ccc(C)cc2)CC1	-3%

(more compounds)
no.	mol	HPGD block
101	Nc1cccc(C(=O)O)c1	?
102	COc1cc(/C=C/C(=O)OCC(=O)N2CCc3ccccc3C2)ccc1O	?
103	COc1ccccc1NS(=O)(=O)c1ccc(NC(=O)c2nc3ncccn3n2)cc1	-7%
104	Cc1ccc(NCc2nnc(SCC(=O)Nc3ncc(C)s3)n2CC2CCCO2)c(C)c1 (stereo not drawn)	-12%
105	N#CCCN(Cc1cccnc1)S(=O)(=O)c1ccc(S(=O)(=O)N2CCCCCC2)cc1	-4%
106	COc1cccc(-c2nnc(NC(=O)C(C)C)o2)c1	-15%
107	Cn1c(=O)c(=O)n(C)c2cc(S(=O)(=O)CCC(=O)N3CCOCC3)ccc21	?
108	O=C1CC(NCc2ccccc2F)C(=O)N1c1ccccc1 (stereo not drawn)	1%
109	CC(Oc1ccccc1)C(=O)Nc1ccccc1O (stereo not drawn)	7.1µM*
110	OC1CCCN(C(=S)Nc2ccc(SC(F)F)cc2)C1 (stereo not drawn)	-2%
111	CO[C@]1(C2=NCCN2)COc2ccccc2O1	-4%
112	O=C(Nc1ccc2c(c1)OCO2)C1CCCN1C(=O)NCc1ccccc1 (stereo not drawn)	0%
113	COc1ccc(CCn2c3c(c(=O)[nH]c2=O)C(NC(=O)c2cccs2)(C(F)(F)F)C(=O)N3)cc1OC (stereo not drawn)	-12%
114	COc1cccc(NC(=O)CSc2nnc(-c3ccoc3C)n2CC2CCCO2)c1 (stereo not drawn)	-4%
115	O=C(CSc1nc2ccccc2o1)N1c2ccccc2Sc2ccc(Cl)cc21	-17%
116	CCOC(=O)Nc1nc(-c2ccccc2)c(C(=O)c2ccccc2)s1	-19%
117	Cc1ccc2c(c1)NC(=O)C(CC(=O)NCCCN1CCCCC1)O2 (stereo not drawn)	-2%
118	O=C(O)C1C2C=CC(C2)C1C(=O)N1CCN(CCO)CC1 (stereo not drawn)	2%
119	Cc1nc2[nH]c(=S)[nH]c2cc1Br	?
120	Cc1cccc(N2CCN(C(=O)c3cccc(N4C(=O)C5CC=CC(C)C5C4=O)c3)CC2)c1C (stereo not drawn)	-12%
121	CN(C)c1ccc(-c2nnn(Cc3ccccc3Br)n2)cc1	-25%

Source: PubChem BioAssay (National Center for Advancing Translational Sciences (NCATS))
